PKD1 inh: inhibitors of human PKD1 kinase, biochemical, fluorescence polarization. Serine/threonine-protein kinase D1 (Homo sapiens), Q15139. PKD1 kinase fluorescence polarization assay. inhibition, %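 (about 10 µM by stock and volumes)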. hit rate 0.056% among 200,000. AID 797, 2007;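 active = inhibition of 50% or more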;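 note: controls were vehicle for no effect and a reference inhibitor for full effect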
Target sequence (Q15139 whole entry, looked up): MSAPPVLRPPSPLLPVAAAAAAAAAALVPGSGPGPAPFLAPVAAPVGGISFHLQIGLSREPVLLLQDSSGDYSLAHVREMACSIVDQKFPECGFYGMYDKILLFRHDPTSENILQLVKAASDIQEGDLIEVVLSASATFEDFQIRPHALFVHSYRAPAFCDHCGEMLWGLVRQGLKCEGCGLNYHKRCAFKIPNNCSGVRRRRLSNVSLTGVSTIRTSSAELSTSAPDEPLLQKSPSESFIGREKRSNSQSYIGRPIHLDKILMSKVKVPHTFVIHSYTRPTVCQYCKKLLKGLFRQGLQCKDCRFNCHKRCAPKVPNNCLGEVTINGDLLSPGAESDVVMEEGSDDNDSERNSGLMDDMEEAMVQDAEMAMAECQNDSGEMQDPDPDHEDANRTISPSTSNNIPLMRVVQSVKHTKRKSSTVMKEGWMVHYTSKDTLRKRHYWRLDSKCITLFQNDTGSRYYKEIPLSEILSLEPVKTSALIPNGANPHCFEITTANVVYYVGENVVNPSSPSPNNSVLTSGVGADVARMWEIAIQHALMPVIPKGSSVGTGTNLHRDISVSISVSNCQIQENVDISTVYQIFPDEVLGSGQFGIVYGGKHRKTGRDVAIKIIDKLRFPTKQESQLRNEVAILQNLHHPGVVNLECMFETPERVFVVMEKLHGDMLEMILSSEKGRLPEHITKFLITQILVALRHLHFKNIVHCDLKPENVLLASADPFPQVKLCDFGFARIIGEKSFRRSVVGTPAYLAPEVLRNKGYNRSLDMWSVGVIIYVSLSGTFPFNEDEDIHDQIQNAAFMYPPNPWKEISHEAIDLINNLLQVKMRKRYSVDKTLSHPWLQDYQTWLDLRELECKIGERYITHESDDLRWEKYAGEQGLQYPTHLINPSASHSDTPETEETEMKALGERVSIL
Insulin prom inh: inhibitors of insulin promoter-driven GFP, primary screen, imaging, TRM-6 cells (human fetal islet line), eGFP reporter, cell count; reporter expression induced with tamoxifen; inhibition, % at 2 µM; hit rate 0.9% among 130,000;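 active = inhibition above the mean plus 3 SD, with well images judged a real hit on visual review, cut at about 60% in these data, passing the limit was not always enough; inconclusive = inhibition over the cutoff but images rejected on review; inactive = inhibition not above the cutoff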
RGS16-Gao HTS: modulators of RGS16 binding to Galphao, primary screen, biochemical, human proteins, multiplexed bead flow cytometry | Regulator of G-protein signaling 16 (Homo sapiens) + Guanine nucleotide-binding protein … | bead-based flow cytometry RGS16-Galphao binding, fluorescence; actives lie on both sides | binding response (% of control), % at 10 µM | hit rate 0.38% among 220,000;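 active = below 25% or above 175%, edge rows of some plates excepted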;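 note: Galphao activated by GDP with aluminum fluoride before binding; 100% = wells without compound and 0% = beads without RGS; some results beyond the cut were filed as inactive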
GALR2 ag: GALR2 receptor agonists, primary screen, cell-based | Galanin receptor type 2 (Homo sapiens), O43603 | GALR2-expressing cells, agonist activation read-out | activation, %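 (tested at 5 µM)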 | hit rate 0.48% among 140,000 | AID 803, 2007;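 active = above mean plus 3 SD of all compounds, about 5% in these data, not always enough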;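 note: 0% = vehicle buffer wells and 100% = reference agonist at full effect; tested in CHO reporter cells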
HSV replic up: enhancers of HSV replication in host cells, fold increase, host cell viability | HSV replication augmentation in cells | hit rate 0.005% among 220,000 | AID 1956, 2009 | maximum fold increase;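 active = peak rise of 1.5-fold or more in the series; inconclusive = self-fluorescent or not available for retest; tested in PC3 cells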;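 note: first round at 10 µM; read as green reporter fluorescence; hits show the peak of a series up to 25 µM; 1 = signal of infected wells without compound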
Insulin prom inh cell count: further read-out of Insulin prom inh, marked with its call; normalized cell count, %; measured here: cell count, toxicity; reference of the scale not given here;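 cells exposed to compound for 48 h; stained nuclei by imaging scaled within each plate; lower means fewer cells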
HSV replic up primary fold: also measured in HSV replic up; calls as there; fold increase; compound at 10 µM; measured here: primary screen fold increase 10 uM; tested in PC3 cells;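 GFP signal in the first replicate; 1 = infected wells without compound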
* marks the source's active call; other numbers are inactive results; i = inactive; ? = inconclusive; . = no result given. Hits appear at their usual frequency; overall some 1.3% were active at least once.

SMILES	PKD1 inh	Insulin prom inh	Insulin prom inh cell count	RGS16-Gao HTS	GALR2 ag	HSV replic up	HSV replic up primary fold
c1ccc(Cc2nnc3sc(-c4cccs4)nn23)cc1	-10	.	.	98	-0.7	i	0.97
CCOC(=O)c1cn(CC(=O)Nc2cccc(Cl)c2C)nn1	0	4	127	107	-0.4	i	0.96
COc1cccc(/C=N/n2cnc3cc(C)c(C)cc32)c1OC	.	.	.	103	.	i	0.86
O=C(C1=C[C@@H](c2ccc(C(F)(F)F)cc2)C[C@@H](OCc2ccc(CO)cc2)O1)N1CCOCC1	5	.	.	101	.	i	0.96
CCOc1ccc(N=C2NN=C(c3cc(C)n(CC4CCCO4)c3C)CS2)cc1 (centres undefined)	7	6	40	101	.	i	1.2
O=S(=O)(Nc1cccc2c1CCCC2)c1ccc(Cl)cc1	12	8	75	107	1.1	i	1.1
O=C(CSc1nnc(-c2ccncc2)o1)NC1C2CC3CC(C2)CC1C3 (centres undefined)	-10	.	.	35	-0.9	i	1
CCCCCCCC(=O)N/N=C(\C)c1cccnc1	-2	31	152	99	-2.5	i	0.82
CC1CCCCC1NC(=O)COC(=O)/C=C/c1ccc2c(c1)OCO2 (centres undefined)	2	50	140	85	-2.0	i	1
CCOc1ccc2nc(Cl)c(/C=C/C(=O)c3ccco3)cc2c1	-6	-371	93	100	-3.1	i	1.1
COC(=O)c1ccc(NC(=O)COC(=O)c2nc3nccc(C)n3n2)cc1	7	-42	78	115	.	i	1
CC1Cc2ccccc2N1S(=O)(=O)c1cccc(C(=O)OCC(=O)NCc2ccco2)c1 (centres undefined)	.	.	.	102	.	i	0.96
COc1ccc(C/C(N)=N/O)cc1	-6	20	110	105	-1.6	i	0.93
COc1ccc(N(CC(=O)NCc2ccc3c(c2)OCO3)C(=O)CCC(=O)Nc2ccccn2)cc1	4	.	.	92	.	i	1.1
Cc1cc(F)ccc1S(=O)(=O)Nc1ccccc1C(=O)Nc1ncn[nH]1	-2	12	63	104	-0.5	i	0.95
Cc1ccccc1CN1C2=NCCN2c2ccccc21	-1	.	.	104	-0.9	i	0.96
OCCNc1nc(-c2cccnc2)nc2ccccc12	-7	.	.	100	-1.2	i	0.82
CC(Cc1ccccn1)NC(=O)CCc1nnc(C2CCCCC2)o1 (centres undefined)	-4	.	.	97	.	i	0.82
COC(=O)C12CC3CC(C1)CC(n1cnc(Cl)n1)(C3)C2	-4	-20	153	101	-1.3	i	1
CCN(CC)S(=O)(=O)c1cccc(-c2nnc(SCC(=O)NC3CCCCCC3)n2N)c1	0	-38	83	99	-3.6	i	0.86
O=C(CSc1nnc(Cc2cccs2)n1Cc1ccco1)Nc1cccc(Cl)c1	-7	-16	72	103	-2.0	i	0.79
COC(=O)c1sc(NC(=O)COc2cccc3ccccc23)nc1C	-2	-21	140	80	-0.2	i	0.91
O=C(O)CCc1nn2c3ccccc3n(CCN3CCCCC3)c2nc1=O	-7	7	193	104	-0.3	i	1.1
COc1ccc(C(=O)/C=C/c2ccc(C)cc2)c(OC(=O)c2ccc([N+](=O)[O-])cc2)c1	-6	22	108	104	-1.3	i	0.91
CCc1ccc(NS(=O)(=O)c2ccc3[nH]cc(C(=O)N4CCCCC4)c(=O)c3c2)cc1	-13	-114	6	109	-1.3	i	0.87
Cc1ccccc1NC(=O)CC1SC(=Nc2ccc(O)cc2)NC1=O (centres undefined)	.	.	.	111	.	i	1
Cc1cc(C(C)(C)C)cc(S(=O)(=O)Nc2ccc(O)c(C(=O)O)c2)c1C	-3	-39	47	103	-0.6	i	1.2
CC(C)Cn1c(SCC(=O)NC2CCCc3ccccc32)nc(O)cc1=O (centres undefined)	-3	.	.	110	-3.9	i	1
COc1ccccc1N(CC(=O)Nc1cc(C)on1)S(=O)(=O)c1ccc(Cl)cc1	-2	3	48	104	-1.4	i	0.93
O=C(NNC(=O)c1ccccc1[N+](=O)[O-])Nc1ccc(Cl)cc1	-4	-6	139	97	.	i	1.1
COc1ccc(NC(=O)N2CCCC(C(=O)NC(C)C)C2)cc1 (centres undefined)	-23	-440	77	91	-2.4	i	1
COC(=O)c1ccc2c(c1)NC(=O)CS2	-4	.	.	99	.	i	0.99
CCn1c(SCC(=O)c2c(N)n(C)c(=O)n(C)c2=O)nnc1-c1ccccc1	0	7	133	111	-1.3	i	0.98
O=C(NCC(c1cccnc1)N1CCN(c2ccccc2F)CC1)c1ccccc1 (centres undefined)	-4	-30	168	102	-0.6	i	0.93
CCCCc1nc2ccccc2c(=O)n1NC(=O)c1c(O)c2ccccc2n(C)c1=O	-2	11	116	100	.	i	0.98
CN1CCC2(CC1)N=C(c1ccc(F)cc1)C(=S)N2C(=O)c1ccc(C(C)(C)C)cc1	5	.	.	109	-0.4	i	1.1
COc1cc(CNc2ncn[nH]2)ccc1OCC(=O)NC(C)(C)C	-1	.	.	159	.	i	1
O=C(CSc1nnc(-c2ccccc2)n1-c1ccc(Cl)cc1)N/N=C/c1ccccc1C(=O)O	.	.	.	101	.	i	0.91
C/C(=N\NC(N)=S)C1C2C3CC4C5CC(C42)C1C53 (centres undefined)	-5	29	92	102	.	i	0.99
O=C(c1ccccc1NS(=O)(=O)c1ccc(Br)s1)N1CCOCC1	-6	19	128	113	-0.6	i	0.7
Cc1c([N+](=O)[O-])cc(C(=O)Oc2ccc(Br)cc2C(=S)N2CCCCC2)cc1[N+](=O)[O-]	-1	-11	116	96	-2.6	i	0.81
CC(C)[C@H](NC(N)=O)C(=O)Nc1cccc(S(=O)(=O)N2CCOCC2)c1	0	.	.	103	.	i	0.91
CCc1sc(C(=O)Nc2cccc(C(C)=O)c2)cc1C	7	-31	83	105	-0.8	i	1.1
Cc1cccc(N2C(=O)CC(N3CCN(c4cccc(C(F)(F)F)c4)CC3)C2=O)c1 (centres undefined)	-16	5	103	110	-0.9	i	0.97
CNC(=O)COC(=O)c1ccc(-c2nc3ccccc3s2)s1	-4	16	130	101	-1.0	i	0.92
CC(=O)N1CCN(c2ccc(NC(=O)c3ccc(Br)o3)cc2Cl)CC1	4	53	92	100	.	i	0.86
CCNC(=O)CC1C(=O)N(c2ccc(F)cc2)C(=O)N1CCc1ccc(OC)cc1 (centres undefined)	-10	-155	132	103	-0.9	i	0.91
Cc1cc(NC(=O)CCC(=O)N(CC(=O)NC2CCCC2)c2ccc3c(c2)OCCO3)no1	-6	.	.	103	-2.0	i	0.99
S=C(NCc1ccccc1)NCc1ccc2c(c1)OCO2	2	.	.	93	-0.4	i	1.1
O=c1[nH]c2ccc(S(=O)(=O)N3CCN(C4CCCCC4)CC3)cc2[nH]c1=O	2	50	118	92	-2.9	i	0.97
COc1ccc(C(=O)N/N=C\c2coc3ccccc3c2=O)cc1	.	.	.	103	.	i	0.94
Cc1c(N/C=C/C(=O)C(F)(F)F)c(=O)n(-c2ccccc2)n1C	-1	-36	132	97	.	i	1
Cc1ccc(-c2nnc(N3CCCCC3)c3ccccc23)cc1S(=O)(=O)N(C)C	-1	14	73	105	-2.6	i	0.77
COc1ccc(CNC(=O)c2ccc(CS(=O)(=O)Cc3ccccc3F)o2)cc1	10	33	122	102	.	i	0.92
O=C(Nc1cccc(-c2cn3cccnc3n2)c1)c1ccc(Br)o1	7	9	51	96	-0.3	i	0.78
O=C(NCc1ccco1)C1c2ccccc2Oc2ccccc21	-5	-72	105	92	-1.1	i	0.96
Fc1ccccc1-c1nc(NCc2ccco2)c2ccccc2n1	-5	.	.	108	.	i	0.92
CCCn1c(C)cc(C(=O)CSc2nc3ccccc3c(=O)n2Cc2ccco2)c1C	-7	-17	111	80	-0.5	i	1.1
CN(C)c1ccc(/C=N/N=C2/NC(=O)/C(=C/c3ccc([N+](=O)[O-])cc3)S2)cc1	-2	-25	103	88	-5.3	.	.
CN1CCN(Cc2cccc(Oc3ccccc3)c2)CC1	-7	-31	65	42	-2.1	i	0.9
The results go on.
SMILES	PKD1 inh	Insulin prom inh	Insulin prom inh cell count	RGS16-Gao HTS	GALR2 ag	HSV replic up	HSV replic up primary fold
COc1ccc(C)cc1NC(=O)CCN1CC(C)OC(C)C1 (centres undefined)	-3	28	49	114	.	i	0.92
O=C(NCc1ccc2c(c1)OCO2)c1cccnc1Cl	-1	.	.	99	.	i	1.1
O=[N+]([O-])c1ccc2nc(-c3ccccc3)n(OCc3ccc(Cl)cc3)c2c1	1	-7	135	97	-3.0	i	0.84
S=C(NCc1ccco1)NCC(c1ccco1)N1CCCCC1 (centres undefined)	-3	.	.	100	.	i	1.1
CCS(=O)(=O)c1nc2ccccc2n1CC(=O)N1CCCCC1	-3	9	122	102	-0.9	i	0.97
CCOC(=O)C1(CCOc2ccccc2)CCN(C(=O)c2ccc(-n3cccn3)cc2)CC1	4	.	.	105	.	i	0.86
O=C(Nc1cccc(Cl)c1)c1ccc(NCCCN2CCOCC2)c([N+](=O)[O-])c1	2	28	112	106	-2.3	i	0.89
Cc1cc(C(=O)NN=C2CCCCCC2)c(C)o1	.	.	.	99	.	i	0.93
COc1ccc(/C=N/Nc2nccnc2Cl)cc1	-1	83*	114*	104	0.8	i	0.84
COc1ccc2[nH]cc(C(=O)CN3CCN(C(=O)c4ccco4)CC3)c2c1	-2	19	91	88	-0.4	i	1
Cc1ccc(N2C(=O)/C(=C/c3ccco3)SC2=S)cc1	-5	23	115	102	0.0	i	1.2
CCC(=O)N(Cc1cc(=O)[nH]c2ccccc12)C1CCCCC1	-5	.	.	102	-0.6	i	0.95
CCC(=O)NC(=S)Nc1ccc(NC(=O)c2ccco2)c(OC)c1	-13	.	.	105	-0.9	i	0.95
COc1ccccc1N(C)S(=O)(=O)c1ccc(C(=O)OCC(=O)NCCC2=CCCCC2)cc1	3	25	124	45	-1.2	i	0.95
CCC(C)(C)n1nnnc1C(C(C)C)N(Cc1cccnc1)Cc1ccco1 (centres undefined)	-3	-5	132	96	.	i	1

Reprinted at random: 3 compounds from above.
SMILES	PKD1 inh	Insulin prom inh	Insulin prom inh cell count	RGS16-Gao HTS	GALR2 ag	HSV replic up	HSV replic up primary fold
Cc1ccc(N2C(=O)/C(=C/c3ccco3)SC2=S)cc1	-5	23	115	102	0.0	i	1.2
CCC(C)(C)n1nnnc1C(C(C)C)N(Cc1cccnc1)Cc1ccco1 (centres undefined)	-3	-5	132	96	.	i	1
COc1ccccc1N(C)S(=O)(=O)c1ccc(C(=O)OCC(=O)NCCC2=CCCCC2)cc1	3	25	124	45	-1.2	i	0.95

Continuation.
SMILES	PKD1 inh	Insulin prom inh	Insulin prom inh cell count	RGS16-Gao HTS	GALR2 ag	HSV replic up	HSV replic up primary fold
COc1ccc(-n2cc(CN(C)Cc3n[nH]c(=O)[nH]3)c(-c3cccc(F)c3)n2)cc1	-2	43	99	109	.	i	0.89
CC(=O)N1CCN(C(=S)NC(=O)c2c(-c3ccccc3Cl)noc2C)CC1	-2	.	.	98	.	i	0.97
COc1cccc(-n2cc(CN(C)Cc3nc(Cc4cccc(F)c4)no3)cn2)c1	-1	.	.	101	.	i	1
COc1cc2c(cc1OC)CN(S(=O)(=O)c1ccc3c(c1)OCCO3)CC2	8	.	.	99	-2.6	i	0.91
COc1cccc(-c2csc(N3CCN(CC(=O)Nc4ccc5c(c4)OCO5)CC3)n2)c1	-4	10	112	105	-2.1	i	1
COc1ccc(-n2c(SCC(N)=O)nnc2-c2ccccc2F)cc1	-2	48	135	99	-2.7	i	0.95
Cc1ccc(N(CC(O)CN2CCCC2)S(=O)(=O)c2ccc(C)cc2)cc1 (centres undefined)	-3	.	.	104	-2.9	.	.
CCN(CC)c1ccc(/C=C/c2nc3ccccc3s2)cc1	-7	-57	139	110	17*	?	.
COc1ccc(NC(=O)Nc2cccc(C)n2)cc1	-3	.	.	114	0.2	i	0.99
CSc1ccccc1-n1nnnc1SCC(=O)Nc1ccccc1C	-9	.	.	95	1.1	i	0.88
Cc1cc(C)c(OC2(c3ccccc3)OC(=O)c3ccccc32)c(C)c1 (centres undefined)	-14	-58	26	100	-0.2	i	0.92
